TRPML1 inh: inhibitors of human TRPML1 channel. Q9GZU1. TRPML1-inducible cells, Ca2+ dye fluorescence, FDSS; active compounds read low; inhibition of EC80 agonist-evoked calcium signal. activity change, negative = inhibition, % (no concentration beside the values). hit rate 0.02% among 390,000; in the data active means activity change below about -50%; inconclusive means about -30% to -50%; inactive means above about -30%;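 further: stimulus is agonist 54-4 at its EC80 concentration; on the % scale 0 is the no-effect control and ±100 the full control effect; compound concentration not given in the record; the text of the record puts the active cut at -80%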
Target sequence (Q9GZU1 whole entry, looked up): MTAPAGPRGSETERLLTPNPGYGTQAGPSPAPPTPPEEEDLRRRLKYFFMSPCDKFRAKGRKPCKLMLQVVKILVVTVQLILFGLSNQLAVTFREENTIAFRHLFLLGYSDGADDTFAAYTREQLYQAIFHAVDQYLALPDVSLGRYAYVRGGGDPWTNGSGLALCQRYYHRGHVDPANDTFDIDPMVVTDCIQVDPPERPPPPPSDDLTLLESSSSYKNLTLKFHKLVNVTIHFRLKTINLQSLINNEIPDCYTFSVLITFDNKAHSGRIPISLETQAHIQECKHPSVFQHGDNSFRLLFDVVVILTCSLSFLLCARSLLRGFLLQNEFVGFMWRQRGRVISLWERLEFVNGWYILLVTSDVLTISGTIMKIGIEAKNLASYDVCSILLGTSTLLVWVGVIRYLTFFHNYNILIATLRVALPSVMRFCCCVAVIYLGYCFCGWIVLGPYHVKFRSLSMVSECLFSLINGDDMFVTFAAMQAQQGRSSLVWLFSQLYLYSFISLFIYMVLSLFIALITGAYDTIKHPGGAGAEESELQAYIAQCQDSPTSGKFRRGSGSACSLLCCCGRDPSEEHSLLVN
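Calcium fluorescence in TRPML1-DL cells induced overnight with Tet: a 110 s read after compound pin addition, then a 110 s antagonist read after challenge with 54-4 at 4 uM final (EC80).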
D2 ag: activates the human D2 dopamine receptor; P14416; DiscoveRx PathHunter D2 beta-arrestin, luminescence, 90 min; 100% = 57 uM dopamine signal; activation, % (no concentration beside the values); hit rate 0.084% among 360,000; in the data active = activation above about 40%; inconclusive = about 15% to 40%; inactive = below about 15%; further: compound concentration not given in the record; the text of the record calls up to 30% inactive
Target sequence (P14416 whole entry, looked up): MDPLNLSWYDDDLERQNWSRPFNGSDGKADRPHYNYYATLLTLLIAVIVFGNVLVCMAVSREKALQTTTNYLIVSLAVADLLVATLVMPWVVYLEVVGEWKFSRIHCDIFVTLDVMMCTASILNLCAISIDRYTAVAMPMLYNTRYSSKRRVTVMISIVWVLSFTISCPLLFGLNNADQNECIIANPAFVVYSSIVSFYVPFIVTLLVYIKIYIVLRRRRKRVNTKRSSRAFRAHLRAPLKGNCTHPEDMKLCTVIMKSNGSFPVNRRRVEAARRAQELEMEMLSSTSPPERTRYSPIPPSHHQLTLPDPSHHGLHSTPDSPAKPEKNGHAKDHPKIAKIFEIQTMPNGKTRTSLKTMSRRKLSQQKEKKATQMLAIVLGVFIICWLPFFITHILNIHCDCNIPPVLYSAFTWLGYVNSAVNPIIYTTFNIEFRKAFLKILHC
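DiscoveRx PathHunter D2 beta-arrestin cells (2,100/well) attached overnight, then compound-stimulated 90 min at 37 C in HBSS/10 mM HEPES/0.1% Tween-20 buffer; beta-galactosidase complementation read by luminescence after 1 h at ambient temperature. Dopamine 57 uM final (EC100) as control.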
TRPML1 ag: activates the human TRPML1 channel; TRPML1-expressing cells, Ca2+ dye fluorescence, FDSS; host cell line not named in the record; reference of the full effect not given here; activation, % (concentration not given with the values); hit rate 0.12% among 410,000; in the data active = activation above about 50%; inconclusive = about 30% to 50%; inactive = below about 30%; further: 0% is about no effect; the text of the record puts the active cut at 80%
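Agonist activity was taken from a 110 s kinetic Ca2+ dye read on the FDSS after pinning compounds onto TRPML1-DL cells. The cells were seeded at 1,500/well with Tet inducer, incubated about 16 h, then dye-loaded at room temperature.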
CtBP-E1A blk: blocks the CtBP interaction with E1A. activity change, % (no concentration beside the values). AlphaScreen GST-E1A/His-CtBP binding, 1536-well; active compounds read low; control for the full effect not named in the record. AID 651724. hit rate 0.49% among 340,000; in the data active means activity change below about -65%; inconclusive means about -30% to -65%; inactive means above about -30%; further: on the % scale 0 is the no-effect control and ±100 the full control effect
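In 5 uL wells, 23 nL compound meets equimolar GST-E1A and His-CtBP (5X stock 125 nM each) for 2 h, 37 °C. Beads (5X, 50 ug/mL) then 1 h, 37 °C, dark.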
PINK1 modulator: PINK1 expression modulation; Potency, µM (top dose mostly 76.6 µM), without a hit: at the top dose activation (PINK1 increase), usual class: activators; hit rate 0.2% among 410,000; PINK1 immunofluorescence, high-content cytometry, 24 h; active = well fitted activation curve with a large enough effect; inconclusive = small, poorly fitted or top-dose-only effect; inactive = flat fitted curve, though single readings scatter; cell line not stated here;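 further: potency means the concentration at half of the fitted maximal effect; % of control where 0% means no effect; nearly all actives have a fitted effect of over 65% in size; a mitochondrial uncoupler was the plate control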
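Decision-based qHTS: stable cells, 24 h exposure to five compound concentrations, CCCP as control. Fixed cells stained for PINK1 plus nuclear, mitochondrial and cell markers, cytometer read.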
Six1-Eya2 inh: Six1/Eya2 interaction inhibition. hit rate 0.56% among 360,000. AID 651725. AlphaScreen GST-Six1/His-Eya2 binding, biochemical; active compounds read low; control for the full effect not named in the record. activity change, % (test concentration not listed). Q15475+O00167; in the data active = activity change below about -65%; inconclusive = about -30% to -65%; inactive = above about -30%; further: on the % scale 0 is the no-effect control and ±100 the full control effect
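Homogeneous AlphaScreen proximity assay pairing GST-Six1 with His-tagged Eya2 (added as 5X mix: 250 nM and 500 nM) in 50 mM Tris pH 8.0, 300 mM NaCl, 1 mM TCEP. Glutathione donor and nickel acceptor beads; 1 h, 37 °C, dark.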
Starred values were filed as active, the others as inactive; ? = inconclusive; . = no result given; [ ] = remark or other dose.

SMILES	TRPML1 inh	D2 ag	TRPML1 ag	CtBP-E1A blk	PINK1 modulator	Six1-Eya2 inh
O=C(NC(=S)NC1CCS(=O)(=O)C1)c1cccc([N+](=O)[O-])c1 (centres undefined)	-2.7	0.6	-0.7	1.3	-1.8%	18.5
CCN(CC)c1ccc(NC(=O)c2ccco2)c(C)c1	-13.2	-5.6	-0.3	5.6	-0.1%[38.3 µM]	-3.4
CN1CCn2c1nc(N1CCOCC1)nc2=O	9.0	0.2	-0.5	-1.6	0.3%	0.2
CC(=O)N1CCN(c2cc(N3CCCC3)c(F)cc2[N+](=O)[O-])CC1	7.5	-6.2	0.5	0.0	0.8%	-8.4
Cc1ccc(CSc2nnc(-c3ccccn3)n2C)cc1	-1.5	-1.1	1.5	-0.4	-0.9%	-5.5
O=C(N/N=C/c1cccc([N+](=O)[O-])c1)c1ccc(Br)cc1	-7.9	2.0	-0.1	-0.7	4.5%	-0.8
c1ccc2c(c1)Cn1c-2nc2ccccc21	-21.0	-0.8	-0.5	0.0	-1.1%	-3.5
COc1cccc(C=Cc2nccc3ccccc23)c1OC	12.5	-0.4	-0.3	-18.4	2.8%	11.2
NC(=O)CN1C(=O)C(=O)N(Cc2ccccc2Cl)C1=O	.	-9.8	.	-1.7	1.6%	-0.7
Cc1ccccc1NC1=NC(C)(C)N=C(N)N1	2.3	-0.7	-1.0	-2.3	-1.3%	0.7
O=C(O)c1ccc(N/N=C/C=C/c2ccc([N+](=O)[O-])o2)cc1	-14.0	-9.0	19.8	-7.8	0.4%	?
CCOC(=O)C1CCCn2c1nc1sc3c(c1c2=O)CCCC3 (centres undefined)	4.1	-1.0	0.0	3.0	-1.0%[38.3 µM]	-2.4
Cc1ccc(S(=O)(=O)CCC(=O)OCC(=O)NCCc2ccc(S(N)(=O)=O)cc2)cc1	7.1	-0.9	-0.7	.	-1.0%	0.0
CC(=O)NCCc1nc2cc(NC(=O)c3cccc([N+](=O)[O-])c3)ccc2n1C	-7.8	-5.7	-0.4	-11.4	0.5%	-5.5
CCCCSCc1nc2ccccn2c1Br	18.1	0.8	-0.1	1.8	0.7%	3.8
OC(CNCc1ccccc1Cl)C(F)(F)F (centres undefined)	-0.7	-0.3	0.6	.	0.5%	4.0
Cc1ccc(/C=N\NC(=O)/C(=C\Nc2nccc(C)n2)NC(=O)c2ccccc2)cc1	-13.0	-3.8	0.7	1.1	2.8%	-7.6
O=C1NCC(Nc2ccc(Br)cc2)C(=O)N1 (centres undefined)	2.7	-0.7	-0.4	3.0	3.7%	5.6
CCC[N+](CC#Cc1ccccc1)(CCC)CC(=O)OCC	54.4	0.6	1.0	16.9	-1.6%	9.4
Cn1ccsc1=NC(=O)c1ccc(S(C)(=O)=O)cc1	28.7	2.4	1.0	3.1	-1.1%	-1.0
O=C(CSc1nc2[nH]ncc2c(=O)[nH]1)Nc1ccc(OC(F)(F)F)cc1	2.5	-6.4	-0.1	-0.7	5.1%	1.2
Cc1c(C(=O)NCc2cccc(C(F)(F)F)c2)sc(=O)n1Cc1cccc(F)c1	.	2.3	-0.3	-7.9	0.2%	25.3
COC1=CC(=O)C(O)=C(CCCCCCC/C=C/CCCCCCCC2=C(O)C(=O)C=C(OC)C2=O)C1=O	.	-9.2	.	3.3	?	-11.7
O=C(/C=C/c1cccc([N+](=O)[O-])c1)Nc1cccc(NC(=O)c2ccco2)c1	14.4	1.2	2.7	-26.6	-0.6%	-11.3
CC(C)C[C@@H](C(=O)O)N(Cc1cccc(CN([C@@H](CC(C)C)C(=O)O)S(C)(=O)=O)c1)S(C)(=O)=O	-4.8	-2.1	0.4	4.0	-0.4%	6.0
Following part:
SMILES	TRPML1 inh	D2 ag	TRPML1 ag	CtBP-E1A blk	PINK1 modulator	Six1-Eya2 inh
O=S(=O)(Nc1cccc(Oc2cnccn2)c1)c1ccc(F)cc1	-11.5	-2.0	1.1	1.2	0.7%	-8.1
CC(NC(=O)c1ccc(Br)o1)C1CC2CCC1C2 (centres undefined)	-4.0	-3.0	0.7	-9.1	0.6%	-2.5
O=C(COC(=O)c1cncc(Br)c1)NCc1ccc2c(c1)OCO2	-15.2	-3.5	-0.3	0.7	0.7%	-2.8
O=C(c1[nH]c(C(F)(F)F)nc1-c1ccccc1)N1CCOCC1	.	-4.2	-0.6	3.9	-0.7%	7.9
COCC(C)NC(=O)/C(=C/c1ccccc1)c1ccccc1 (centres undefined)	-12.5	-1.6	0.5	.	-0.4%	0.0
Cc1ccc(C2=NS(=O)(=O)N(C)C(C(=O)NCc3ccco3)=C2)cc1	-11.1	-4.7	0.0	-10.7	1.4%	0.5
Cc1ccc(Cn2c(N)nc3ccccc32)cc1	0.8	-1.9	-0.5	0.7	1.2%	-1.0
Cc1ccc(NC(=O)C2CCN(S(=O)(=O)c3c(C)noc3/C=C/c3ccco3)CC2)cc1C	-2.5	.	0.3	.	3.3%	.
CN(C)c1nc2c(cnn2C)c(=O)[nH]1	6.2	1.4	-0.2	1.1	0.1%	-6.3
COc1ccc(S(=O)(=O)Nc2ccc(NC(C)=O)cc2)cc1OC	-18.0	-0.3	-0.3	7.8	1.4%[38.3 µM]	2.7
CC1(C)CC(=O)C2=C(C1)N(CCN1CCOCC1)C1=C(C(=O)CC(C)(C)C1)C2c1ccc(Cl)c([N+](=O)[O-])c1	33.2	-4.7	1.5	2.7	0.4%	2.2
O=C1C=C(c2cccc(Cl)c2)C[C@@H](c2ccc(F)cc2)C1	-4.9	2.3	1.8	.	2.9%	5.6
CCOc1c2ccc(C(=O)NCc3ccc(C)cc3)cc2nn1CC	0.2	-1.1	-0.1	7.4	-0.1%	0.5
O=C(Cn1cncn1)NCc1ccc(Cl)cc1	-8.8	0.6	0.3	5.9	-1.6%	5.8
COc1ccc(/C=C/C(=O)OCC(=O)NC2CCCC(C)C2C)cc1 (centres undefined)	-12.1	0.0	1.2	-5.6	9.5%	5.2
CCCc1cc(=O)oc2cc(C)c3c(-c4cccc(OC)c4)coc3c12	-16.1	.	0.2	.	1.8%	.
C/C(CC(=O)Nc1ccc(C)c(Cl)c1)=N\NC(=O)c1ccccn1	-4.8	-0.4	-0.6	-22.9	2.5%	-23.2
CC12CCC(=O)N1C(C(=O)N1CCN(S(=O)(=O)c3ccccc3F)CC1)CS2 (centres undefined)	3.1	2.8	-0.6	12.5	4.6%	-1.8
O=C(COC(=O)c1ccc(F)cc1Cl)NC1CCS(=O)(=O)C1 (centres undefined)	5.5	-4.9	-0.5	.	-0.9%	0.5
O=C(NCc1nnc(SCC(=O)N2CCOCC2)o1)c1cccs1	-13.0	-2.8	0.2	0.9	2.4%	6.4
CCOC(=O)C1=C(C)NC(=S)NC1c1ccc(OCC(=O)N2CCCCCC2)c(OC)c1 (centres undefined)	-9.8	-0.5	-0.2	-18.8	0.4%	-4.1
Cc1ccc(S(=O)(=O)NC(=O)Nc2ccccc2)cc1	5.0	-3.8	0.3	-12.0	0.2%	16.1
Cc1cc(C)c2c(=O)c3c(oc2c1)C(=O)N(CCCOC(C)C)C3c1ccccc1F (centres undefined)	-9.3	.	2.0	.	0.7%	.
Cc1ccccc1N1CCN(C2CCCN(C(=O)CCN3CCCCO3)C2)CC1 (centres undefined)	0.6	-2.0	0.9	4.0	-0.2%	3.4
COc1ccc(CC(=O)OCC(=O)c2ccc(S(=O)(=O)N3CCCCC3)cc2)cc1	-3.2	-12.4	-0.2	4.9	-0.2%	2.8

As entered above.
`COc1ccc(CC(=O)OCC(=O)c2ccc(S(=O)(=O)N3CCCCC3)cc2)cc1` in CtBP-E1A blk = 4.9
`COCC(C)NC(=O)/C(=C/c1ccccc1)c1ccccc1` (centres undefined) in TRPML1 ag = 0.5

The list goes on:
SMILES	TRPML1 inh	D2 ag	TRPML1 ag	CtBP-E1A blk	PINK1 modulator	Six1-Eya2 inh
C/C(=N/NC(=O)c1cccs1)c1cccc(NC(=O)C2CC2)c1	8.0	-4.2	-0.7	-1.4	-0.1%	-1.4
Cc1ccc(NC(=O)COC(=O)c2cccc(OC(F)F)c2)cc1S(=O)(=O)N1CCCCC1	31.9	-1.6	1.2	-2.0	-0.3%	-1.6
CCOC(=O)c1ccc(NC(=O)CSc2nc(SC)ns2)cc1	-0.1	-0.7	1.0	-0.5	22.7%	-2.4
Cc1cc(C(=O)N2CCN(c3ncccn3)CC2)c2cc(F)ccc2n1	-20.8	0.6	4.0	5.3	3.4%[38.3 µM]	4.9
COc1cc(Cl)c(C)cc1NC(=O)c1cc(S(=O)(=O)N2CCCC2)ccc1F	-15.0	.	-0.4	.	1.2%	.
NNC(=O)c1ccc(COc2ccc3c(c2)CCC3)cc1	8.2	0.8	-0.7	0.1	0.6%	-9.3
CC(=O)Oc1ccc(OC(C)=O)c2c1C1C=CC2CC1	1.6	5.2	0.0	-13.8	-2.3%	9.4
CC(C)OC(=O)CSc1nc2ncccc2[nH]1	-22.5	-4.1	0.1	22.3	2.7%	15.8
NC(=O)COc1ccc2cc(-c3ccc(F)cc3)c(=O)oc2c1	11.0	3.8	-0.6	1.0	1.8%	1.9
Cc1csc(NC(=O)CSc2nnc(-c3ccncc3)n2C)n1	6.5	-0.9	0.7	38.8	15.7%[38.3 µM]	18.2
COc1ccc(OC)c(-n2c(C)cc(/C=C3\C(=N)N4N=C(CC(=O)N5CCOCC5)SC4=NC3=O)c2C)c1	-20.2	-8.7	0.2	-7.5	0.6%	-9.6
O=C(O)C(Cc1ccc(Cl)cc1)Sc1nc2ccccc2[nH]1 (centres undefined)	-2.2	-2.1	-0.1	-3.9	0.6%	-5.6
CCOC(=O)N1CCC(NC(=O)CS(=O)(=O)Cc2nc(-c3ccccc3Cl)oc2C)CC1	3.3	-0.7	-0.8	-1.7	-0.5%	-1.0
CC(NC(=O)c1ccc([N+](=O)[O-])o1)C1CC2CCC1C2 (centres undefined)	-10.0	4.9	0.2	5.4	-4.1%	-3.4
CCN(C(=O)c1cc(S(=O)(=O)N2CCOCC2)cn1C)c1ccc(OC)cc1	-14.3	.	-0.7	.	0.6%	.
COc1cccc(-c2nc(CSCC(=O)N3CCc4ccccc43)c(C)o2)c1	27.6	-1.7	-0.5	0.8	-21.2%[38.3 µM]	0.0
O=C(Cn1cc(CCO)nn1)N1CCNCC1	-5.5	-1.9	-0.5	3.9	-0.4%	2.5
O=C(NN1C(=O)/C(=C/c2ccc(O)c([N+](=O)[O-])c2)SC1=S)c1ccccc1Cl	-0.3	-3.2	-0.1	?	-0.9%	?
O=C(Nc1cccnc1)C1Cc2c(-c3cccc(F)c3)ccnc2O1 (centres undefined)	.	-2.9	-0.7	2.4	-0.8%	-7.3
O=C(CS(=O)(=O)c1cccc2nsnc12)N1CCN(c2cccc(C(F)(F)F)c2)CC1	-2.2	.	25.2	.	-3.2%	.
C=CCN=C(NC#N)SCC(=O)c1cccc(OC)c1	-2.8	-2.6	0.6	-7.9	3.3%[38.3 µM]	-15.3
O=C(Nc1cccc(C(F)(F)F)c1)Nc1nnc(N2CCCCC2)s1	25.1	.	-0.8	.	2.1%	.
Cc1cc(NC(=O)CSc2nc(N)c(NC(=O)c3ccccc3F)c(=O)[nH]2)no1	2.9	1.0	-0.3	0.0	8.0%	3.8
